NPYLR7 ag – mosquito NPYLR7 agonism | HEK293T NPYLR7/Galpha15, GCaMP6s calcium fluorescence | 0.15% of 270,000 active | activation, % at 10 µM | AID 1259423; in the data active means activation above about 40%;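 further: 0% = vehicle and 100% = reference agonist at the receptor; some compounds past the cut are filed as inactive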
NPYLR7 ag max-min – also measured in NPYLR7 ag; calls as there; activation, %; measured here: Max-Min RFU normalised activation; some inactives read as strong as hits;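 span of the calcium signal over five minutes; 0% = vehicle and 100% = native peptide agonist; compound fluorescence can raise it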
* hit, by the source's call; & = joins results of further samples. Not all compounds are listed. The share of hits here may be higher or lower than overall.

The opening six entries, to show the layout:
SMILES	NPYLR7 ag	NPYLR7 ag max-min
Cc1ccc(C)c(OC(C)C(=O)NCCc2n[nH]c3c2CCCC3)c1 (stereo not given)	5	6
CC(NS(=O)(=O)c1ccccc1F)c1ccccc1Cl (stereo not given)	-2	-3
COc1ccc(-c2cc(C(=O)N(C)CCc3ccc(OC)c(OC)c3)n(-c3cc(C)ccc3C)n2)cc1	-2	5
Cc1ccc(C(=O)COC(=O)c2ccc(F)cc2)cc1	11	10
Cc1cccc(N(C)C(=S)Oc2ccc3ccccc3c2)c1	-12&0	-16&-2
OCCCn1cnc(-c2ccccc2)c1-c1ccc(-c2cncnc2)cc1	3	2

Results, from the start:
SMILES	NPYLR7 ag	NPYLR7 ag max-min
Cc1ccc(C)c(OC(C)C(=O)NCCc2n[nH]c3c2CCCC3)c1 (stereo not given)	5	6
CC(NS(=O)(=O)c1ccccc1F)c1ccccc1Cl (stereo not given)	-2	-3
COc1ccc(-c2cc(C(=O)N(C)CCc3ccc(OC)c(OC)c3)n(-c3cc(C)ccc3C)n2)cc1	-2	5
Cc1ccc(C(=O)COC(=O)c2ccc(F)cc2)cc1	11	10
Cc1cccc(N(C)C(=S)Oc2ccc3ccccc3c2)c1	-12&0	-16&-2
OCCCn1cnc(-c2ccccc2)c1-c1ccc(-c2cncnc2)cc1	3	2
Cn1cc(-c2ncc(C(=O)N(CC3CCC3)CC(F)(F)F)s2)cn1	9	10
CCc1c(C)c(C#N)c2[nH]c3ccccc3n2c1=S	3	4
CCNc1ccc(C)cc1C(=O)N1CCCC(c2n[nH]c(=O)n2CC)C1 (stereo not given)	22	16
CN(CCCn1cccn1)Cc1ccccn1	-5	-6
CC1(C)CC2CC(C)(CN2C(=O)C2CCN(S(=O)(=O)c3cccs3)CC2)C1 (stereo not given)	2	-2
CC[C@@]1(C(=O)O)C[C@H](C(=O)NCCN(C)C)[C@H](c2ccc(F)cc2)N1C	-1	-2
CC1CC(OC(=O)C(O)c2ccccc2)CC(C)(C)N1C (stereo not given)	-4	-4
Cc1ccc(C)c(CS(=O)Cc2cc(C)no2)c1 (stereo not given)	10	7
COc1ccc(C)c2sc(N(Cc3cccnc3)C(C)=O)nc12	-17	-16
O=C(Nc1cccc(C(F)(F)F)c1)c1cccnc1Oc1cccc([N+](=O)[O-])c1	-9	-13
COCC(C)NS(=O)(=O)c1ccc(C(=O)NC2CCSc3ccccc32)cc1 (stereo not given)	-3	-6
CC(C#N)(NC(=O)CN1CCCC1CCc1ccccc1)C1CC1 (stereo not given)	4	3
Cn1cc(C(CC(=O)O)c2cccc(F)c2)c2ccccc21 (stereo not given)	-6	-6
O=C(CC1CSc2nc3[nH]ncc3c(=O)n21)Nc1ccc(F)c(Cl)c1 (stereo not given)	1	18
CCN(CC)C(=O)Oc1ccc2c(ccn2Cc2ccc(C(F)(F)F)cc2)c1-c1ccc(F)cc1	14	7
Clc1ccc(Nc2nc(Cl)nc(N3CCOCC3)n2)nc1	11	5
Cc1ccc(-c2ccc(=O)n(CCCNS(=O)(=O)c3cccs3)n2)cc1	-1	-2
CCOC(=O)C1CCN(C(=O)c2csc(CSc3nnc(-c4cccnc4)n3-c3cc(Cl)ccc3C)n2)CC1	7	8
Cc1nc(SCC(=O)NC2CCCCCCC2)sc1CC(N)=O	10	11
CC(C(N)=O)N(C)Cc1ccc(Cl)cc1Cl (stereo not given)	-1	0
O=C1c2ccc([N+](=O)[O-])cc2C(=O)N1CNc1ccccn1	-11	-15
O=C(CC1CSc2nc3c(cnn3-c3ccc(F)cc3)c(=O)n21)Nc1nccs1 (stereo not given)	3	2
Cc1ccccc1CNCCN(C)C	3	7
O=C(Cc1ccccc1)N(Cc1ccccn1)c1nc2c(F)cc(F)cc2s1	3	-5
CCCn1cc2c(c1-c1ccccc1)c(=O)n(C)c(=O)n2C	-11	-18
CSc1nc(S(=O)(=O)c2ccc(Cl)cc2)c(Cl)s1	5	3
CCOC(=O)CNC(=O)Cn1c(-c2ccc(-c3cccs3)s2)nc(C)c1C	12	3
CC(=O)NNc1nc(-c2ccccc2)c2cc(Br)ccc2n1	-4	-8
Cc1ccc2nc(N(CCCn3ccnc3)C(=O)c3ccc4c(c3)OCCO4)sc2c1	-13	-18
CCOc1ncccc1-c1cnc(-n2cnnc2)c(C)c1	0	-2
CC(C)Cn1c(CN(CC2CCC2)CC2CCCO2)cnc1S(C)(=O)=O (stereo not given)	-3	-4
CC(O)c1cccc(-c2cc(N)nc3[nH]ccc23)c1 (stereo not given)	12	8
CS(=O)(=O)N1CCC(Cc2cccc(C(=O)O)c2)C1 (stereo not given)	-13	-16
CC(=O)c1c(C)[nH]c(C(=O)NCC2CCCO2)c1C (stereo not given)	7&-7	1&-11
Cc1ccc(S(=O)(=O)Nc2ccc(-c3ccc(=O)n(C)n3)cc2)s1	3	3
Cc1ccc(C(=O)NC=C(C#N)C#N)cc1	1	-3
COc1ccc(S(=O)(=O)N2CCCC(C)C2)cc1N1CCN(S(=O)(=O)c2cccc(Cl)c2Cl)CC1 (stereo not given)	17	2
CC(C)COC(=O)C1C2C=CC3(CN(Cc4ccco4)C(=O)C13)O2 (stereo not given)	4	5
CCC(=O)N(C)C(Cc1ccc(F)cc1F)C1CCN(C(=O)c2cc3cc(F)ccc3[nH]2)CC1 (stereo not given)	17	8
CC1C=CCC2C(=O)N(c3ccc(Oc4ccc(Cl)cc4)cc3)C(=O)C12 (stereo not given)	3	11
CCCCOc1ccc(-c2cc3c(=O)n(CC(=O)NCCc4ccccc4)ccn3n2)cc1	3	3
Fc1cccc(C2(c3nc(-c4cnccn4)no3)CCC2)c1	8	6
C=C(Br)Cn1cnc2ccccc21	1	8
O=C(NC1CC1)c1cc2n(n1)CCCN(C(=O)c1ccc3nc[nH]c3c1)C2	18	7
Cn1nnnc1SCC(=O)Nc1ccc(C(=O)NNC(=O)c2cccs2)cc1	0	8
CC(=O)Oc1cc(C(F)(F)F)ccc1C(=O)O	-2	-5
C=CCCC(O)CN(Cc1c(CC)nn(-c2ccccc2)c1Oc1cccc(F)c1)CC1CCCO1 (stereo not given)	-2	-1
CN1CCCc2cc(C(CNC(=O)c3ccc(Br)o3)N3CCCCC3)ccc21 (stereo not given)	9	4
CC(=O)Nc1ccc(Br)c2c1C(=O)c1c(NC(C)=O)ccc(Br)c1C2=O	2	-1
CCOC(=O)N1CCN(CC(=O)N2N=C(c3ccc(OC)cc3OC)CC2c2ccc3c(c2)OCO3)CC1 (stereo not given)	-12	-7
Cc1cccc(C(C(=O)NC2CCS(=O)(=O)CC2)N(C)C)c1 (stereo not given)	5	6
CCc1nnc(C(C)N2CCCC(c3cc(C(N)=O)n[nH]3)C2)o1 (stereo not given)	5	6
C=CCn1c(=NC(=O)Cc2ccc(S(C)(=O)=O)cc2)sc2c(OC)ccc(OC)c21	8	6
O=C1CCC2(C(=O)NCc3ccc(Cl)cc3)SCCN12 (stereo not given)	-12	-17

The list continues.
SMILES	NPYLR7 ag	NPYLR7 ag max-min
CC[C@H]1CN(C(=O)c2ccc(C)cc2C)CC[C@@]1(C)O	5	2
COc1cccc(C(=O)N2CCC3(CC2)OCC(C(=O)NCc2cccnc2)N3C(=O)c2ccc(F)cc2)c1 (stereo not given)	1	2
COc1ccc(Cl)cc1Cn1c(C)c(C(=O)NCC2CC2)sc1=O	-9	-9
Cc1nc2ccccc2n1CCNc1cc(=O)n2ccccc2n1	-4	-4
CCOC(=O)N1CCC(NC(=O)c2ccc(NC(C)C)nc2)CC1	2	-1
COc1ccccc1/C=C/c1nc2ccc(Cl)cn2c1NC1CCCCC1	10	14
CC(NC(=O)NCCOc1ccc2c(c1)OCO2)c1nncn1C (stereo not given)	2	15
COc1ccccc1COn1c(=O)c(-c2ccccc2)[n+]([O-])c2ccccc21	3	2
O=C(CCC(=O)N1CCc2ccccc2C1)NCCc1cccnc1	-5	-6
CCOC(=O)CCC(=O)Nc1cccc(C2SCC(=O)N2c2ccc(C(F)(F)F)cc2)c1 (stereo not given)	4	2
CC(=O)N1CCN(C(=O)Nc2cccc(N(C)C(C)=O)c2)C(C)C1 (stereo not given)	-1	-1
Cc1nc2sc(C(=O)N3CCCC(N(C)C)CC3)c(C)c2c(=O)[nH]1 (stereo not given)	7	8

Rewritten with two lines to a compound: two of the compounds above.
The line under a structure holds: NPYLR7 ag	NPYLR7 ag max-min
> CC(C)COC(=O)C1C2C=CC3(CN(Cc4ccco4)C(=O)C13)O2 (stereo not given)
 : 4	5
> OCCCn1cnc(-c2ccccc2)c1-c1ccc(-c2cncnc2)cc1
 : 3	2

(further entries)
SMILES	NPYLR7 ag	NPYLR7 ag max-min
CCOc1ncccc1C(=O)N1CCC(=O)N(CC2CC2)C(C(C)C)C1 (stereo not given)	0	4
Cc1ccn2c(NC3CCCCC3)c(-c3ccc(C(C)(C)C)cc3)nc2c1	3&-3	14&-2
CC(C)S(=O)(=O)c1ncc(CN2CCCC2c2nccs2)n1Cc1ccccc1F (stereo not given)	8	4
CCn1cc(CNC(=O)C2(c3ccc(F)cc3)CCOCC2)cn1	13	6
N#Cc1cnn(C(=O)C2CC2c2ccc(Cl)cc2)c1N (stereo not given)	-7	-8
COc1ccc(Cl)cc1C(=O)C1CCCN(Cc2cccc3cnccc23)C1 (stereo not given)	2	0
CC(CNC(=O)CCCc1nnc2c(=O)n(-c3ccc(Cl)cc3)ccn12)c1ccccc1 (stereo not given)	-2	-7
COC(=O)CCC(=O)NCC1Cc2cc(C(=O)OC)cc(Cl)c2O1 (stereo not given)	23	10
Cc1ccc(C(C)Cc2c(-c3ccccc3)ncn2CCCO)o1 (stereo not given)	-3	-5
CCOC(=O)NC(NCCC1C=Nc2ccccc21)(C(F)(F)F)C(F)(F)F (stereo not given)	0	-3
COCCCNC(=O)CC1CSc2nc3c(c(=O)n21)CCCC3 (stereo not given)	-1	1
Cc1cc(CSCC(=O)NC(C)c2ccc(CC(C)C)cc2)on1 (stereo not given)	0	-8

By substructure, the entries above with a COOH group
SMILES	NPYLR7 ag	NPYLR7 ag max-min
CC[C@@]1(C(=O)O)C[C@H](C(=O)NCCN(C)C)[C@H](c2ccc(F)cc2)N1C	-1	-2
Cn1cc(C(CC(=O)O)c2cccc(F)c2)c2ccccc21 (stereo not given)	-6	-6
CS(=O)(=O)N1CCC(Cc2cccc(C(=O)O)c2)C1 (stereo not given)	-13	-16
CC(=O)Oc1cc(C(F)(F)F)ccc1C(=O)O	-2	-5

(listing goes on)
SMILES	NPYLR7 ag	NPYLR7 ag max-min
CCn1c(O)c(N=NC(=O)c2ccccc2)c2cc(Cl)ccc21	0	-3
COc1ccc(Nc2nccc3c2cc(-c2cccc(C(F)(F)F)c2)n3C)cn1	-2	-9
COc1cccc(NC(=O)CN(C)C(=O)c2cccn2C)c1	-1	0
COc1ccc(C2C(=O)c3ccccc3C2=O)cc1	-15	-17
CCS(=O)(=O)N1CCN(c2ccc(Nc3cc(C)ccn3)nn2)CC1	11	5
Cc1[nH]c2ccccc2c1C=Nc1ccccc1C(=O)Nc1ccccc1	-4	-8
CC(C)NCCN1C(=O)C(C)SC1c1ccc(F)cc1 (stereo not given)	-2	-7
O=C(c1cc(F)cc(F)c1)N1CCN(Cc2cccc(-c3noc(-c4cccc(C(F)(F)F)c4)n3)c2)CC1	36	26
COc1cc(Cn2c3ccc(NC(=O)CCc4ccc(O)cc4)cc3c(=O)n2C)ccc1F	8	5
Cc1ccc(C(=O)N(CCN2CCCCC2)CC(=O)N(CCc2ccccc2)Cc2ccc(C)o2)cc1	1	14
OCC1CCN(c2ccc(CNc3nccc(C(F)(F)F)n3)cc2)CC1	11	9
CCCCN(Cc1ccco1)C(=O)c1cc(=O)n(C)c(=O)n1C	2	0
Cc1cc(NC(=O)/C=C/c2csc(C)n2)n(-c2ccccc2)n1	10	5
CCN(CC)C(=O)CSc1ncnc2c1nnn2CC	0	-2
CN1CCCC2(CCN(C(=O)c3cc4sccc4[nH]3)C2)C1=O (stereo not given)	1	2
O=C(c1cnn(Cc2ccccc2)c1)N1CCCC(Nc2ccc3c(c2)OCCO3)C1 (stereo not given)	20	12
Cc1nc(SCC(=O)N(C)C2CCCCC2)c2c3c(sc2n1)CCC3	-3	-4
CCN(C(C)=O)C1CCN(C(=O)CCn2c(C)cc3ccccc32)C1 (stereo not given)	8	1
CCn1ncnc1C(C)NC(=O)Cc1cc(C)no1 (stereo not given)	2	1
COc1cccc(CN2CCCC3(CCN(S(=O)(=O)N(C)C)C3)C2=O)c1 (stereo not given)	4	1
CCc1cc(N2CCN(c3cccc(C(F)(F)F)c3)CC2)nc(SCc2ccc(C(=O)O)cc2)n1	1	10
COCCNc1cnn(-c2ccccc2)c(=O)c1Cl	13	3
CCOC(=O)N(C)c1ccc(NC(=O)NCC(C)(C)N(C)C)cc1	3	1
O=S(=O)(CC(CN1CCCCC1)N1CCCCC1)c1ccc2ccccc2c1 (stereo not given)	3	-1
Cc1ccccc1CC1(CO)CCCN(C(=O)c2ccccc2-c2ccccc2C)C1 (stereo not given)	8	2
COCCN1CCCc2ccc(NS(=O)(=O)c3cccs3)cc21	11	6

Single records, from the list above:
Cc1nc(SCC(=O)N(C)C2CCCCC2)c2c3c(sc2n1)CCC3 is listed with NPYLR7 ag: -3; NPYLR7 ag max-min: -4
COCCNc1cnn(-c2ccccc2)c(=O)c1Cl is listed with NPYLR7 ag: 13; NPYLR7 ag max-min: 3
COCCN1CCCc2ccc(NS(=O)(=O)c3cccs3)cc21 is listed with NPYLR7 ag: 11; NPYLR7 ag max-min: 6
